CtBP-E1A inh: CtBP/E1A binding inhibition. AlphaScreen GST-E1A/His-CtBP binding, 1536-well; hits give low values; control for the full effect not named in the record. activity change, % (concentration not given with the values). 0.49% of 340,000 active. AID 651724; in the data active means activity change below about -65%; inconclusive means about -30% to -65%; inactive means above about -30%; also: % is scaled to controls: 0 for no effect and ±100 for the full control effect
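AlphaScreen with 125 nM GST-E1A and 125 nM His-CtBP (5X stocks) in Tris pH 8.0, 300 mM NaCl, BSA, Tween 20, TCEP. Compounds preincubated 2 h at 37 deg C, then glutathione donor/nickel acceptor beads added for 1 h at 37 deg C in dark.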
Six1-Eya2 blk: blocks human Six1 binding to Eya2. AlphaScreen GST-Six1/His-Eya2 binding, biochemical; hits give low values; control for the full effect not named in the record. activity change, % (no concentration beside the values). 0.56% of 360,000 active. AID 651725; in the data active = activity change below about -65%; inconclusive = about -30% to -65%; inactive = above about -30%; also: % is scaled to controls: 0 for no effect and ±100 for the full control effect; compound concentration not given in the record
Target sequence (O00167 whole entry, looked up): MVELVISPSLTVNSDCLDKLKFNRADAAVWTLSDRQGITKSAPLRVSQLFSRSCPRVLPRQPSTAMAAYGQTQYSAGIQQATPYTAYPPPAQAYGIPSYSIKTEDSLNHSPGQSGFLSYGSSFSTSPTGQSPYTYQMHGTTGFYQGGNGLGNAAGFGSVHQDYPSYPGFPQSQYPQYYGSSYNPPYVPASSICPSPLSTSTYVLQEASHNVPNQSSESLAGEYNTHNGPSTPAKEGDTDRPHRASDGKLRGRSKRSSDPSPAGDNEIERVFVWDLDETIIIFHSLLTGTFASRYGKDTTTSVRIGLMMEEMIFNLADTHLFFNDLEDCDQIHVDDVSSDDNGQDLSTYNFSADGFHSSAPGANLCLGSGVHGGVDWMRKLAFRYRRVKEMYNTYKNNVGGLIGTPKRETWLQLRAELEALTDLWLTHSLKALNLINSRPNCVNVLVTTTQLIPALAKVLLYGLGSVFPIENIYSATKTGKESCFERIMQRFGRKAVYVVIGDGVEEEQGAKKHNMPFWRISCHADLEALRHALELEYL
Target sequence (Q15475 whole entry, looked up): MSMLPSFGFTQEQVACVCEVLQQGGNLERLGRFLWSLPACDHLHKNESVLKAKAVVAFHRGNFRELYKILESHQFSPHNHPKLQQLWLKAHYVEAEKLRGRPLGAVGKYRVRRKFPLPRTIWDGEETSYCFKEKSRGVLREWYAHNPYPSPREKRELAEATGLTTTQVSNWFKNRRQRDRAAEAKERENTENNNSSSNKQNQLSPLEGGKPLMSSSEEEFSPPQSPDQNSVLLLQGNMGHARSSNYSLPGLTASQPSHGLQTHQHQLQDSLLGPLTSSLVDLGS
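Six1/Eya2 binding was read as AlphaScreen signal after compounds were pinned into GST-Six1 plus His-tagged Eya2 (5X stock 250/500 nM) in pH 8.0 Tris/NaCl/TCEP buffer, beads added, then incubated 1 h, 37 C, dark.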
D2 agonist: human D2 receptor agonism in beta-arrestin assay; activation, % (concentration not given with the values); AID 624465; P14416; 0.084% of 360,000 active; DiscoveRx PathHunter D2 beta-arrestin, luminescence, 90 min; 100% = 57 uM dopamine signal; in the data active = activation above about 40%; inconclusive = about 15% to 40%; inactive = below about 15%; also: compound concentration not given in the record; the text of the record calls up to 30% inactive
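DiscoveRx PathHunter D2 beta-arrestin cells (2,100/well) attached overnight, then compound-stimulated 90 min at 37 C in HBSS/10 mM HEPES/0.1% Tween-20 buffer; beta-galactosidase complementation read by luminescence after 1 h at ambient temperature. Dopamine 57 uM final (EC100) as control.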
D2 potentiator: potentiates the human D2 dopamine receptor allosterically | DiscoveRx D2 beta-arrestin cells, luminescence, 90 min; 100% = 57 uM dopamine signal | 0.23% of 360,000 active | potentiation, % (no concentration beside the values) | AID 624464 | P14416; active = potentiation of 50% or more; inconclusive = 30% to 50%; inactive = 30% or less;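 also: compound concentration not given in the record; tested on top of an EC20 dose of dopamine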
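PathHunter D2 cells, attached overnight at 37 deg C, received compound in DMSO plus dopamine at EC20 (50 nM final) for 90 min at 37 deg C. Beta-arrestin recruitment was read as luminescence after 1 h with detection reagent at ambient temperature.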
Sfp PPTase inh: Sfp phosphopantetheinyl transferase inhibition. Q9F4F7. Biochemical Sfp PPTase activity, qHTS. Potency, µM, for inactives: max response, negative = inhibition, most hits filed as inhibitors. 3.5% of 310,000 active. AID 1490; active = well fitted inhibition curve with a large enough effect;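 also: the enzyme is Sfp with the accession as filed and its product quenches rhodamine fluorescence; potency is read from the fitted curve at half-maximal effect; 0% = enzyme reaction without inhibitor and -100% = no enzyme wells; top concentration of the series not given in the record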
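Buffer: 50 mM Hepes-Na pH 7.6, 10 mM MgCl2, 0.01% Nonidet P-40, 0.01% BSA. Enzyme 15 nM, pre-exposed to compound 15 min; substrates then added and fluorescence change tracked over 30 min.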
PINK1 modulator: modulators of PINK1 expression. PINK1 immunofluorescence, high-content cytometry, 24 h. Potency, µM (titrated, usually from 76.6 µM), without a hit: at the highest dose activation (PINK1 increase), usual class: activators. 0.2% of 410,000 active. AID 624263; active = well fitted activation curve with a large enough effect; inconclusive = small, poorly fitted or top-dose-only effect; inactive = flat fitted curve, though single readings scatter; cell line not stated here;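 also: potency is read from the fitted curve at half-maximal effect; % of control where 0% means no effect; nearly all actives have a fitted effect of over 65% in size; a mitochondrial uncoupler was the plate control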
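Cells are seeded, rested 12 hours, then given compound at five concentrations or DMSO for 24 hours. After fixation, blocking and antibody staining, PINK1 amount and mitochondrial localization are scored; CCCP serves as control.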
TRPV1 potentiator: potentiators of human vanilloid receptor 1 (TRPV1); TRPV1-expressing cells, Fluo-8 calcium influx, capsaicin EC20 potentiation; host cell line not named in the record; control for the full effect not named in the record; 0.02% of 320,000 active; AID 540277; potentiation, % at 8.33 µM; Q8NER1; active means potentiation above 80%; inconclusive means 30% to 80%; inactive means below 30%; also: 0% is about no effect
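TRPV1-expressing cells were cultured overnight at 35.5C and loaded with Fluo-8 calcium dye for 40 to 90 min at room temperature. After a 10 s baseline, compound was added and calcium influx was read kinetically for 3 min (ex 480/em 520 nm).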
Active calls of the source: *; [ ] = remark or other dose. Compounds as they come (roughly 3.7% active in at least one column).

CCN(CC)CCN1C(=O)C(=O)/C(=C(/O)c2ccc(S(=O)(=O)N3CCOCC3)cc2)C1c1ccc(C(C)C)cc1 (stereo not given) was read as CtBP-E1A inh -1, Six1-Eya2 blk -1, D2 agonist -1.8, D2 potentiator -5, Sfp PPTase inh 14%, PINK1 modulator 1.0% and TRPV1 potentiator 7.
For CCOc1ncccc1C(=O)OCC(=O)Nc1cccc(S(=O)(=O)N2CCCCCC2)c1 the results were CtBP-E1A inh -12, Six1-Eya2 blk -1, D2 agonist -3.6, D2 potentiator -13, PINK1 modulator 0.3% and TRPV1 potentiator -26.
For O=C(c1ccc(F)cc1)N1CCCC(c2nc(-c3cccs3)no2)C1 (stereo not given) the results were Six1-Eya2 blk 0, D2 agonist -2.1, D2 potentiator -1, Sfp PPTase inh -13%, PINK1 modulator 1.5% and TRPV1 potentiator -12.
Cc1cccc(NC(=S)N(CCCN2CCOCC2)Cc2ccccn2)c1 was read as CtBP-E1A inh 4, Six1-Eya2 blk 0, D2 agonist -3.3, D2 potentiator -12, Sfp PPTase inh 8%, PINK1 modulator -0.7% and TRPV1 potentiator -4.
For CCCC(C(=O)NCC1CCCO1)N(C(=O)CNS(=O)(=O)c1ccccc1)c1ccc(F)cc1 (stereo not given) the results were CtBP-E1A inh 14, Six1-Eya2 blk -6, D2 agonist -4.4, D2 potentiator -1, Sfp PPTase inh 0%, PINK1 modulator 2.6% and TRPV1 potentiator -1.
O=C(OCc1ccccc1)N(CCCCN(CCCNCc1ccccc1)C(=O)OCc1ccccc1)CCCNCc1ccccc1 was read as CtBP-E1A inh -5, Six1-Eya2 blk -11, D2 agonist -7.2, D2 potentiator -35 and PINK1 modulator -2.0%.
For CC(=O)c1c(C)[nH]c(C(=O)Nc2ccc(C)cc2Br)c1C the results were CtBP-E1A inh -9, Six1-Eya2 blk 6, D2 agonist -1.6, D2 potentiator -11, Sfp PPTase inh 12%, PINK1 modulator 1.6% and TRPV1 potentiator -10.
For CCOC(=O)N1CCN(c2c(NCCN3CCN(c4ccccc4F)CC3)c(=O)c2=O)CC1 the results were CtBP-E1A inh 2, Six1-Eya2 blk -1, D2 agonist 0.1, D2 potentiator -1, Sfp PPTase inh 30%, PINK1 modulator 0.5% and TRPV1 potentiator -1.
Screening Cc1ccc(S(=O)(=O)N2CCOCC2)cc1NC(=O)CSc1nc(N)cc(=O)[nH]1 returned CtBP-E1A inh 4, Six1-Eya2 blk 6, D2 agonist -2.4, D2 potentiator -2, Sfp PPTase inh 71µM*, PINK1 modulator -0.9% and TRPV1 potentiator -6.
`Cc1ccccc1Cn1nc(C)c(NC(=O)/C=C/c2cnn(C)c2)c1C` gave CtBP-E1A inh 7, Six1-Eya2 blk 2, D2 agonist 0.4, D2 potentiator 17, Sfp PPTase inh 31%, PINK1 modulator 0.3% and TRPV1 potentiator -7.
Screening OC(CNc1ccccc1)COc1ccc(OCC(O)CNc2ccccc2)cc1 (stereo not given) returned CtBP-E1A inh -19, Six1-Eya2 blk -14, D2 agonist 1.1, D2 potentiator -16, Sfp PPTase inh 3%, PINK1 modulator 23% and TRPV1 potentiator 13.
For COc1cccc(-c2cccc(-c3nc(C(=O)NCCCN4CCOCC4)cc4c3[C@H](CCO)N(S(=O)C(C)(C)C)C4)c2)c1 (stereo not given in full) the results were CtBP-E1A inh -3, Six1-Eya2 blk -5, D2 agonist 10.0, D2 potentiator 3 and PINK1 modulator -0.4%.
For COC(=O)c1sc(NC(=O)C2CCCO2)c(C(=O)OC)c1C (stereo not given) the results were CtBP-E1A inh 3, Six1-Eya2 blk -2, D2 agonist -0.8, D2 potentiator -5, Sfp PPTase inh 13%, PINK1 modulator 1.4% and TRPV1 potentiator 10.
Screening CC(=O)Nc1ccc2c(c1)C(C)(C)C(C)N2C (stereo not given) returned CtBP-E1A inh 3, Six1-Eya2 blk 3, D2 agonist -1.9, D2 potentiator -7, Sfp PPTase inh -1%, PINK1 modulator 2.9% and TRPV1 potentiator -2.
For Cc1ccc(S(=O)(=O)N2CCC(=O)N(CCOC(=O)Nc3cccc(Cl)c3)CC2)cc1 the results were CtBP-E1A inh -7, Six1-Eya2 blk 6, D2 agonist -3.5, D2 potentiator -4, Sfp PPTase inh 15%, PINK1 modulator -0.9% and TRPV1 potentiator -4.
CCC(C)(C(=O)Nc1ccc2c(c1)OCCO2)N(C(C)=O)c1ccc(C(N)=O)cc1 (stereo not given) was read as CtBP-E1A inh 1, Six1-Eya2 blk -1, D2 agonist -2.9, D2 potentiator -8, Sfp PPTase inh 10% and TRPV1 potentiator 23.
Screening Cc1ccc(CN2CCC[C@]3(N[C@H](c4ccc(C)cc4)[C@@H]4C(=O)N(Cc5ccccc5)C(=O)[C@@H]43)C2=O)cc1 returned CtBP-E1A inh 0, Six1-Eya2 blk -6, D2 agonist -8.5, D2 potentiator -1 and PINK1 modulator -0.2%.
CCc1nnc(NC(=O)c2ccc(-c3ccc(F)cc3)o2)s1 was read as CtBP-E1A inh 2, Six1-Eya2 blk 2, D2 agonist 1.9, D2 potentiator -3, Sfp PPTase inh -5%, PINK1 modulator 4.5% and TRPV1 potentiator 6.
Screening Cc1nn(CC(=O)OC(C)C(=O)Nc2ccccc2[N+](=O)[O-])c(C)c1[N+](=O)[O-] (stereo not given) returned CtBP-E1A inh 5, Six1-Eya2 blk 1, D2 agonist 0.3, D2 potentiator -9, Sfp PPTase inh -11%, PINK1 modulator 3.5% and TRPV1 potentiator -5.
Screening O=C(NCCNC(=O)C(F)(F)F)c1ccncc1 returned CtBP-E1A inh 10, Six1-Eya2 blk 4, D2 agonist 0.3, D2 potentiator -1, Sfp PPTase inh 18%, PINK1 modulator -0.6%[38.3 µM] and TRPV1 potentiator -8.
CCc1ccc(/C=C2\C(=N)N3N=C(CC(=O)N4CCCCC4)SC3=NC2=O)cc1 was read as CtBP-E1A inh 14, Six1-Eya2 blk 6, D2 agonist -4.6, D2 potentiator -4, Sfp PPTase inh 5%, PINK1 modulator 0.6% and TRPV1 potentiator 2.
`O=C(COc1cccc2ccccc12)NNC(=O)C1CCCO1` (stereo not given) gave CtBP-E1A inh 0, Six1-Eya2 blk 0, D2 agonist -3.6, D2 potentiator -9, Sfp PPTase inh 11%, PINK1 modulator 8.5%[38.3 µM] and TRPV1 potentiator 5.
Cc1c(Cl)cccc1NS(=O)(=O)c1ccc(-c2ccc(=O)[nH]n2)o1 was read as CtBP-E1A inh -14, Six1-Eya2 blk -2, D2 agonist -1.8, D2 potentiator 9, Sfp PPTase inh 19%, PINK1 modulator 0.2% and TRPV1 potentiator 1.
Screening Cc1ccc(S(=O)(=O)CCC(=O)OCc2cc(C)ccc2C)cc1 returned CtBP-E1A inh 22, Six1-Eya2 blk 12, D2 agonist -1.6, D2 potentiator -16, PINK1 modulator -4.4% and TRPV1 potentiator -4.
For CCNc1nc(NCC)nc(SCCOC(=O)Nc2ccc(Cl)cc2Cl)n1 the results were CtBP-E1A inh -2, Six1-Eya2 blk 0, D2 agonist -3.7, D2 potentiator -12, Sfp PPTase inh -7%, PINK1 modulator 5.6% and TRPV1 potentiator 12.
CCOC(=O)c1sc2ncnc(N3CCN(CC)CC3)c2c1C was read as CtBP-E1A inh 4, Six1-Eya2 blk -3, D2 agonist -0.8, D2 potentiator -16, Sfp PPTase inh 16%, PINK1 modulator -0.6% and TRPV1 potentiator -6.
`O=C(Nc1ccc(Oc2ccccc2)cc1)c1csc([C@H]2C[C@H](O)[C@@H](CO)O2)n1` gave CtBP-E1A inh -17, Six1-Eya2 blk 8, D2 agonist 5.5, D2 potentiator -3 and PINK1 modulator 1.2%.
Cc1ccc(NC(=O)CO/N=C/c2ccc(N(C)C)cc2)cc1 was read as CtBP-E1A inh 6, Six1-Eya2 blk -4, D2 agonist -8.8, D2 potentiator -3, Sfp PPTase inh -7%, PINK1 modulator 10% and TRPV1 potentiator -25.
CC(C)N1CC(C(=O)Nc2ccc(Cl)c([N+](=O)[O-])c2)CC1=O (stereo not given) was read as Six1-Eya2 blk -1, D2 agonist -5.4, D2 potentiator -33, Sfp PPTase inh 7%, PINK1 modulator 0.9% and TRPV1 potentiator 2.
Cc1ccc(NC(=O)C2CCCN(c3ncnc4c3nc3n4CCCCC3)C2)cc1Cl (stereo not given) was read as CtBP-E1A inh -19, Six1-Eya2 blk -6, D2 agonist -2.5, D2 potentiator -15, Sfp PPTase inh -2%, PINK1 modulator -0.6% and TRPV1 potentiator 2.
Screening COc1ccc(/C=N/N=C2/NC(=O)C(CC(=O)NC(N)=O)S2)cc1 (stereo not given) returned CtBP-E1A inh 2, Six1-Eya2 blk -7, D2 agonist -3.7, D2 potentiator 1, Sfp PPTase inh -37%, PINK1 modulator 0.4% and TRPV1 potentiator 4.
For COc1cc(C(=O)OC2CC3CCC2(C)C3(C)C)ccc1OC(C)=O (stereo not given) the results were CtBP-E1A inh 6, Six1-Eya2 blk 6, D2 agonist 5.6, D2 potentiator -26, Sfp PPTase inh 6%, PINK1 modulator 3.8% and TRPV1 potentiator 4.

From PubChem BioAssay
